Assay outcomes deposited in PubChem by National Center for Advancing Translational Sciences (NCATS).
gsp antagonist = antagonists of gsp mutant (McCune-Albright syndrome). gsp-mutant cells, cAMP HTRF, 30 min; control for the full effect not named in the record. AID 624288. 340,000 compounds, 0.4% hits. Potency, µM (series often up to 76.9 µM), inactives show at the highest dose activity change, negative = inhibition, actives largely listed as inhibitors; active = falling curve of any shape with a large fitted effect; inconclusive = falling curve, mostly with a smaller effect; inactive = flat or rising curve; cell line not stated here;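 also: intracellular cAMP measured with PDE inhibitor Ro 20-1724 present during compound exposure; potency is read from the fitted curve at half-maximal effect; % is scaled to controls: 0 for no effect and ±100 for the full control effect; nearly all actives have a fitted effect of over 65% in size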
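HTRF cAMP measurement after 30 min RT detection following 30 min, 37C compound treatment alongside […] (added as 300 uM solution) in G418-selected cells seeded at 2000/well and grown 16–24 h.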
gsp agonist = agonists of gsp mutant (McCune-Albright syndrome); gsp mutant cells, cAMP HTRF, 30 min; control for the full effect not named in the record; Potency, µM (series often up to 76.9 µM), for inactives: top-dose activation (cAMP increase), most hits filed as activators; AID 624287; 340,000 compounds, 0.13% hits; active = well fitted activation curve with a large enough effect; inconclusive = small, poorly fitted or top-dose-only effect, or another doubt; inactive = no such curve, though single readings can be large or run the other way; cell line not stated here;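 also: phosphodiesterase inhibitor Ro 20-1724 added with compounds to block cAMP breakdown; potency is read from the fitted curve at half-maximal effect; nearly all actives have a fitted effect of over 60% in size; about a fifth of the inactives were tested at one dose only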
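Cells stably selected in G418 were plated at 2000/well, grown 16-24 hr, then given compounds in DMSO with the PDE inhibitor […] (300 uM solution added) for 30 min at 37C; cAMP was read by HTRF.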
D2 potentiator = potentiates the human D2 dopamine receptor allosterically; P14416; DiscoveRx D2 beta-arrestin cells, luminescence, 90 min; 100% = 57 uM dopamine signal; potentiation, % (concentration not given with the values); 360,000 compounds, 0.23% hits; active = potentiation of 50% or more; inconclusive = 30% to 50%; inactive = 30% or less;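 also: tested on top of an EC20 dose of dopamine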
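PathHunter beta-arrestin assay in DiscoveRx D2 cells. Compounds were added with an EC20 of dopamine (50 nM final) for 90 min at 37 deg C. Luminescence was read 1 h after detection reagent, with 57 uM dopamine as the EC100 control.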
CtBP-E1A inh = inhibitors of CtBP/E1A interaction | AlphaScreen GST-E1A/His-CtBP binding, 1536-well; stronger effect = lower value; control for the full effect not named in the record | activity change, % (no concentration beside the values) | 340,000 compounds, 0.49% hits | AID 651724; in the data active means activity change below about -65%; inconclusive means about -30% to -65%; inactive means above about -30%; also: % is scaled to controls: 0 for no effect and ±100 for the full control effect
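GST-E1A and His-tagged CtBP (125 nM each as 5X stock) were preincubated with pin-transferred compound for 2 h at 37 °C in the dark, then glutathione donor and nickel acceptor beads were added for 1 h before AlphaScreen reading.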
D2 agonist = activates the human D2 dopamine receptor. DiscoveRx PathHunter D2 beta-arrestin, luminescence, 90 min; 100% = 57 uM dopamine signal. activation, % (concentration not given with the values). 360,000 compounds, 0.084% hits; in the data active = activation above about 40%; inconclusive = about 15% to 40%; inactive = below about 15%; also: the text of the record calls up to 30% inactive
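DiscoveRx PathHunter D2 beta-arrestin cells (2,100/well) attached overnight, then compound-stimulated 90 min at 37 C in HBSS/10 mM HEPES/0.1% Tween-20 buffer; beta-galactosidase complementation read by luminescence after 1 h at ambient temperature. Dopamine 57 uM final (EC100) as control.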
Six1-Eya2 inh = inhibitors of human Six1/Eya2 interaction; AlphaScreen GST-Six1/His-Eya2 binding, biochemical; stronger effect = lower value; control for the full effect not named in the record; activity change, % (test concentration not listed); 360,000 compounds, 0.56% hits; in the data active = activity change below about -65%; inconclusive = about -30% to -65%; inactive = above about -30%; also: % is scaled to controls: 0 for no effect and ±100 for the full control effect
Target sequence (O00167 whole entry, looked up): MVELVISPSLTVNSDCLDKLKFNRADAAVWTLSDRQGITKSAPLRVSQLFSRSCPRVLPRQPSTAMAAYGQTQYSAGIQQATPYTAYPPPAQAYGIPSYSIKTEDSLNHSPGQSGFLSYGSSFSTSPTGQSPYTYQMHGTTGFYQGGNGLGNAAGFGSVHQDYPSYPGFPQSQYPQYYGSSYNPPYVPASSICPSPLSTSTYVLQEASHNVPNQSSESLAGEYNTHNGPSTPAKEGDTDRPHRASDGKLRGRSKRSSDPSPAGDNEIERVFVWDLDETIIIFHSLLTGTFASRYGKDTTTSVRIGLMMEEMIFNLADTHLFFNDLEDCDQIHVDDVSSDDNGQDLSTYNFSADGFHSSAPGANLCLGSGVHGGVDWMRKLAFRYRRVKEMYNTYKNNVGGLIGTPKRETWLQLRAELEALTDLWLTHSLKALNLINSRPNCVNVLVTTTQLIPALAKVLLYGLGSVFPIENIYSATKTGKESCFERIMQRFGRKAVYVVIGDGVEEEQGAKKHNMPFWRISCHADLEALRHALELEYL
Target sequence (Q15475 whole entry, looked up): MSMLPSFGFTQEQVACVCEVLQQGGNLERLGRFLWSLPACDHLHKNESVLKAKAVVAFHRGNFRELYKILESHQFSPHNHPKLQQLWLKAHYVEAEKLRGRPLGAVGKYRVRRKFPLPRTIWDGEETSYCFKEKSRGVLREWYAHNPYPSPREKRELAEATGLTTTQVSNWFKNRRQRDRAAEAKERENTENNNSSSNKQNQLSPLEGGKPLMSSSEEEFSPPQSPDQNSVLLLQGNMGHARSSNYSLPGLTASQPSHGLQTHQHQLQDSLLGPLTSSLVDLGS
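Compounds are tested against tagged Six1 and Eya2 proteins bridged by glutathione donor and nickel acceptor beads; after a one-hour incubation at 37 °C without light, AlphaScreen emission is recorded.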
* marks the source's active call; other numbers are inactive results; ? = inconclusive; . = not tested or not shown; [ ] = another dose, or the depositor's remark. Hits appear at their usual frequency. About 1.4% of those tested had a hit in this group.

SMILES	gsp antagonist	gsp agonist	D2 potentiator	CtBP-E1A inh	D2 agonist	Six1-Eya2 inh
Cc1[nH][nH]c(=O)c1C(c1ccc(O)c(Br)c1)c1c(C)[nH][nH]c1=O	-2.8%	14.6%[15.4 µM]	-1.0	-7.6	-2.6	?
CC(C)C1N(S(=O)(=O)c2ccccc2)CCN1S(=O)(=O)c1ccccc1	-9.7%	-2.8%	-8.6	4.6	-1.4	5.1
O=C(C1COc2ccccc2O1)N1CCc2ccccc21 (configuration not stated)	-1.7%	?	25.8	6.1	0.4	0.2
O=C(NC(=S)NCc1cccnc1)c1ccccc1[N+](=O)[O-]	18.1%	5.3%	-4.1	2.3	-3.1	2.9
COc1ccccc1-c1nnc(SCC(=O)Nc2nc(-c3ccccc3)cs2)n1C	-9.3%	31.2%	-3.8	-10.3	-2.6	-11.5
COc1ccc(NC(=O)NC(C)c2ccncc2)cc1OC (configuration not stated)	2.2%	-26.3%	-14.1	-12.2	0.0	-0.2
O=C(Nc1ccc(Cl)cc1C(=O)N1CCOCC1)c1ccco1	10.9%	12.6%	-9.2	3.4	-2.6	1.5
C[C@H]1COC(=O)[C@H](CC(=O)OC(C)(C)C)C/C=C\C[C@@H](CC(=O)N[C@H](CO)Cc2ccccc2)C(=O)N1	8.3%	?	-8.9	.	-2.4	8.8
CC1CCCC(NC(=O)COC(=O)Cc2ccc(Br)cc2)C1C (configuration not stated)	4.4%	2.8%	6.4	6.3	3.7	48.6
OC(COc1ccc2cc(Br)ccc2c1)Cn1ccnc1 (configuration not stated)	19.8%	6.0%	-4.8	-7.1	8.4	0.0
CC(C)CCN1CCN(CCCc2ccccc2)CC1CCO (configuration not stated)	2.4%	-16.7%	-4.6	1.8	-6.3	2.5
CCOC(=O)C1=CCN(S(=O)(=O)c2ccc(F)cc2)C1c1ccc(Br)cc1 (configuration not stated)	.	.	0.2	6.5	2.4	8.0
COc1cccc(CN(C)C(=O)CC[C@H]2O[C@@H](n3cnc4c(NC(=O)c5ccccc5)ncnc43)[C@H](O)[C@@H]2O)c1	.	.	-3.6	-4.9	-2.8	-3.3
COc1cc(/C=N/NC(=O)NC2CCCCC2)cc(OC)c1O	25.3%	26.0%	8.5	-4.6	9.9	-3.5
CCOc1ccc(-n2ccnc2SCC(=O)Nc2nnc(CC)s2)cc1	-9.9%	6.2%	1.4	-9.0	6.1	3.8
CC(=O)c1c(C(C)=O)c(C)n(-c2nc(-c3ccc(C)c(C)c3)c(C)s2)c1C	-9.5%	0.4%	-16.0	-0.1	-2.4	-1.8
Cc1ccc(NP(=O)(c2ccc(N(C)C)cc2NC(=O)c2cccs2)N2CCOCC2)cc1Cl (configuration not stated)	-14.6%	-13.8%	-7.0	23.5	-3.9	14.2
Cc1cccc(NC(=O)CN(C)S(=O)(=O)c2ccccc2)n1	-9.8%	-14.9%	14.2	1.4	4.2	-4.6
CSc1nnnn1-c1ccc(C(=O)OCC(=O)N2CCOCC2)cc1	-0.9%	-21.0%	3.8	-1.0	-0.7	2.5
Cc1ccc(S(=O)(=O)N2CCN(C3CC4CCC3C4)CC2)cc1 (configuration not stated)	-2.4%	?	-12.5	2.0	-5.0	20.1
OCc1cccc(-c2csc(C(O)(c3ccccc3)C(F)(F)F)n2)c1 (configuration not stated)	.	.	1.6	2.1	1.8	-4.2
CCOC(=O)c1ccc(NC(=O)CCc2nnc3ccc(N4CCN(C)CC4)nn23)cc1	9.0%	20.1%	-3.9	-7.8	-4.1	4.7
COc1ccccc1NS(=O)(=O)c1cccc(C(=O)NCC(c2ccco2)N2CCCCC2)c1 (configuration not stated)	-3.8%	-24.6%	-40.5	-20.5	-1.9	2.7
CCOC(=O)C1(CCCc2ccccc2)CCN(C(=O)c2cncs2)CC1	-11.3%	7.5%	-0.6	0.2	-2.1	-1.3
Fc1ccccc1OCCCCn1cncn1	-4.7%	?	0.5	2.2	-0.9	1.6
Cc1ccc(-n2cc(CN3CCC(O)(c4ccccn4)CC3)c(-c3ccc(F)cc3)n2)cc1	6.5%	-25.5%[15.4 µM]	-14.2	.	0.5	-18.6
COc1ccc(C2=NOC(C(=O)NCc3cccnc3)C2)cc1OC (configuration not stated)	-7.3%	-1.2%[15.4 µM]	-4.8	1.8	0.2	2.2
COc1cc(/C=N/NC(=O)CN(Cc2ccco2)S(=O)(=O)c2ccccc2)ccc1O	-14.1%	24.8%[15.4 µM]	-9.6	-91.5*	-1.4	-82.4*
COC(=O)c1ccccc1NC(=O)C1CCN(C(=O)c2ccc(OC)cc2)CC1	-5.3%	-29.7%	0.4	2.3	-1.7	5.0
O=C(CN1CCN(S(=O)(=O)c2cccc(Br)c2)CC1)N1CCCCC1	7.3%	5.5%	-8.6	8.2	-6.9	-3.8
COc1ccc(Cl)cc1NC(=O)CC(C)=O	-4.3%	?	-1.0	0.2	0.4	1.8
CC[C@@]1(C(=O)OC)N[C@H](CN(C)C(=O)Nc2ccccc2)[C@@H]2C(=O)N(Cc3ccccc3)C(=O)[C@@H]21	3.4%	.	-4.5	5.0	-1.0	4.4
COCCCNc1ncnc2c1nc1n2CCCC1	7.5%	-9.8%	-7.8	-2.0	-0.4	-7.9
Cn1nc(C(C)(C)C)cc1N1C(=O)CCC1(C)C(=O)Nc1ccc2c(c1)OCCO2 (configuration not stated)	.	.	1.7	10.9	-1.4	4.5
CCN(CC(=O)Nc1c(F)cccc1F)C(=O)CCCN1C(=O)c2ccccc2C1=O	.	-28.5%	-18.5	-9.0	-1.5	8.9
COc1ccccc1-n1cc(-c2ccc(Cl)cc2)[nH]c1=O	-15.8%	-7.5%	5.1	4.1	0.1	2.9
CC(C)(C)NCC(O)COc1ccccc1C(=O)CCc1ccccc1 (configuration not stated)	6.3%	-1.6%	-10.0	-14.6	-2.6	-9.4
COc1ccc(-n2cc(CNCC3CCOCC3)c(-c3cccc(F)c3)n2)cc1	-17.4%	4.2%	-3.0	.	-7.6	13.3
O=C(Nc1ncc2c(n1)-c1ccccc1CC2)c1ccccc1	1.1%	-66.2%[inhibitor]	0.4	-2.7	-0.7	3.0
CSc1ccc(CNC(=O)C2Cc3cc(S(=O)(=O)N4CCCC4)ccc3N2C(C)=O)cc1 (configuration not stated)	-13.7%	3.9%	-3.2	-4.7	-1.1	0.2
Cc1onc(-c2ccccc2)c1C(=O)NCC1CCCO1 (configuration not stated)	2.1%	-15.5%	-1.4	4.5	-2.9	3.7
C=CCc1ccc(OCc2ccc(C(=O)O)o2)c(OC)c1	6.1%	-29.9%[15.4 µM]	-1.9	2.5	0.2	6.6
CCN1CCCC1CNC(=O)Cn1cccc1C(=O)c1ccccc1C (configuration not stated)	3.4%	-11.1%	1.3	1.4	-2.1	-1.0
Fc1cccc(-c2c(-c3ccccc3)ncc3cc(F)ccc23)c1	-19.0%	.	-5.4	4.9	-1.2	1.5
COc1ccc(/C=C/C(=O)OCC(=O)N(C)CC(=O)Nc2ccc(C)cc2)c(OC)c1	-4.9%	2.4%	-7.0	2.2	0.7	-3.5
Cc1ccc(C(=O)NC2CC(C)(C)NC(C)(C)C2)cc1S(=O)(=O)N1CCCCC1	4.3%	8.4%[15.4 µM]	-7.4	3.0	-3.9	-7.5
N#CC(Cc1cccs1)c1nc2ccccc2[nH]1 (configuration not stated)	.	4.0%	-10.4	2.6	-1.6	-5.5
Cc1cc(NC(=O)CSc2nc3cc(Cl)ccc3s2)no1	0.6%	21.4%	16.5	0.8	-1.8	8.2
CCOC(=O)c1c(/N=C/C2=C(O)CC(C)(C)CC2=O)sc(C)c1C	10.3%	-2.6%[15.4 µM]	0.7	13.1	0.3	-5.0
COc1cc(C#Cc2c(-c3cncn3C)n(C)c3ccc(Br)cc23)cc(OC)c1	-1.3%	-2.1%	-17.7	-11.1	-2.6	-14.9
CC1CCc2sc(C(=O)NN)cc2C1 (configuration not stated)	8.9%	8.9%	3.0	.	-5.5	2.9
C[C@H]1CN([C@@H](C)CO)C(=O)CCCn2cc(nn2)CO[C@@H]1CN(C)C(=O)Nc1cccc(F)c1	.	-36.4%[inhibitor]	3.6	3.5	-3.0	6.9
CC1CCN(C(=O)CSc2nnc(-c3ccco3)o2)CC1	8.8%	-25.6%	-3.7	4.3	-2.9	10.4
COC(=O)c1c[nH]c(=O)c2ccccc12	-4.3%	-2.9%[15.4 µM]	-4.5	-3.2	-2.9	-3.4
Cc1cccc(Sc2nc(-c3ccccc3)ccc2C#N)c1	-18.0%	9.6%	12.2	64.7	-3.9	46.6
COc1ccc(CNC(=O)COC(=O)CCN2C(=O)C3CC=CCC3C2=O)cc1OC (configuration not stated)	1.1%	-11.7%	-7.9	12.2	-8.2	-1.0
Cc1cccc(NC(=O)c2cc3c(=O)n4ccccc4nc3s2)c1	-17.2%	?	-6.9	-3.1	-4.7	-12.6
O=C(Nc1ccc(OC(F)(F)F)cc1)Oc1ccccc1N1CCOCC1	11.5%	-19.8%	-17.0	-3.1	-1.6	-13.5
OCC1OC(n2cnc3c(NCc4ccco4)ncnc32)C(O)C1O (configuration not stated)	6.4%	-23.0%	-1.9	8.7	-1.4	-0.8
CCOC(=O)c1ccc(S(=O)(=O)n2c(=O)oc3ccccc32)cc1	-15.3%	30.8%	-3.9	1.7	?	2.0

2 compounds drawn at random from the list so far:
SMILES	gsp antagonist	gsp agonist	D2 potentiator	CtBP-E1A inh	D2 agonist	Six1-Eya2 inh
O=C(Nc1ccc(OC(F)(F)F)cc1)Oc1ccccc1N1CCOCC1	11.5%	-19.8%	-17.0	-3.1	-1.6	-13.5
COC(=O)c1c[nH]c(=O)c2ccccc12	-4.3%	-2.9%[15.4 µM]	-4.5	-3.2	-2.9	-3.4

Next records
SMILES	gsp antagonist	gsp agonist	D2 potentiator	CtBP-E1A inh	D2 agonist	Six1-Eya2 inh
O=C(N/N=C/c1ccc(Cl)cc1Cl)C(=O)NC1CC1	-1.4%	?	-5.4	-3.8	0.1	6.9
CCC(=O)N1CCc2cc(Br)cc(S(=O)(=O)NCc3ccccc3OC)c21	-45.9%	2.9%[15.4 µM]	-6.0	-10.5	-0.8	-3.2
COc1cc(CNc2ccc3[nH]c(=O)[nH]c3c2)ccc1OCC(=O)NC(C)(C)C	-4.8%	-22.6%	?	-14.4	3.8	-7.4
COC(=O)c1ccsc1NC(=O)CN1CCN(c2ncccn2)CC1	-7.4%	-5.6%[15.4 µM]	-1.7	-22.6	10.0	21.6
CCN(CC)CC#CC(O)(c1ccccc1)c1ccccc1	.	1.9%[15.4 µM]	-17.6	0.0	-2.5	-1.3
Cc1cccc(N2CCN(C(=O)N3CCOCC3)CC2)c1C	-1.1%	-2.3%[15.4 µM]	-4.3	.	2.9	-1.6
CN1CC(=O)N(CC(=O)NCc2ccc(F)cc2)c2ccccc2C1=O	8.0%	-37.5%[inhibitor]	0.1	3.6	-4.8	29.6
COC(c1ccc(Cl)cc1)(c1ccc(Cl)cc1)C(Oc1nccc(C)n1)C(=O)O (configuration not stated)	-32.2%	-58.1%[inhibitor]	-2.0	0.0	-1.4	0.9
O=C(CSc1nnc(-c2cccs2)n1-c1ccccc1)N1CCCc2ccccc21	1.6%	9.5%	-9.5	19.7	-5.8	2.5
